# Screening data as filed in PubChem BioAssay.
# VDR inh: Inhibitors of the vitamin D receptor (VDR): qHTS; hit rate 0.93% among 400,000; Potency, µM, inactives show max response, negative = inhibition, usual class: inhibitors; Vitamin D3 receptor (Homo sapiens), P11473; VDR-SRC2-3 peptide fluorescence polarization, 2 h; active = well fitted inhibition curve with a large enough effect; inconclusive = small, poorly fitted or top-dose-only effect, or another doubt; inactive = no such curve, though single readings can be large or run the other way; note: series mostly up to about 120 µM
# Target sequence (P11473 whole entry, looked up): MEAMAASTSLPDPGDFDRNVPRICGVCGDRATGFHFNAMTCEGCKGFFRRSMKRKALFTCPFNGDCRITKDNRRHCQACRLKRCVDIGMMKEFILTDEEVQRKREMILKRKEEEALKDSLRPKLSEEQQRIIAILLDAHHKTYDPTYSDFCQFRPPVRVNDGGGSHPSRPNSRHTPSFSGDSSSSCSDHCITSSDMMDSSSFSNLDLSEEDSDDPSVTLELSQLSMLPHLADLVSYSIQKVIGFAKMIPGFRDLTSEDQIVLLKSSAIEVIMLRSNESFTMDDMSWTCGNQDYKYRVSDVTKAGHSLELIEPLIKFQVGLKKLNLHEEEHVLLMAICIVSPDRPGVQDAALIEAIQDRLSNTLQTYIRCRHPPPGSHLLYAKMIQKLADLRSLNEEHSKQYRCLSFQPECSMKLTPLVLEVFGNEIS
#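 Inhibition of the VDR/SRC2-3 peptide interaction is quantified by fluorescence polarization. Compounds (23 nl, pintool) incubate with the reagents for 2 hours at ambient room temperature.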
# The depositor's hits bear a star; ? = inconclusive; & = joins results of further samples; [ ] = another dose, or the depositor's remark. % is set by controls: 0 for no effect and ±100 for the full control effect; potency is the fitted concentration of half-maximal effect. A portion of the library; the hit share may differ from the screen's.
SMILES,VDR inh
COc1cc(/C=C(\NC(C)=O)C(=O)N2CCCCC2)ccc1OC(C)=O,-2.6%
Cc1ccc(S(=O)(=O)NCc2ccccc2)cc1C(=O)NCCc1ccc(S(N)(=O)=O)cc1,-15.8%
O=C(OCC(=O)N1N=C(c2ccc(Cl)cc2)CC1c1ccco1)c1cncc(Br)c1 (stereo unspecified),70.8µM*
CC(NC(=O)COc1ccc(/C=N/NC(=O)C(=O)Nc2ccccc2Br)cc1)c1ccccc1 (stereo unspecified),4.4%
Cc1cc(NC(=O)CCCn2cnc([N+](=O)[O-])n2)no1,?
Cc1ccc(NC(=O)CSc2nc(=O)cc(N)n2CCc2ccccc2)cc1,-14.1%&1.6%
COc1ccc(NC(=O)Nc2ccc(Cc3ccncc3)cc2)c(OC)c1,-9.1%
O=C(O)c1cccc(NC(=O)c2cc3cc(Br)cc(Br)c3oc2=O)c1,5.6%
COC(=O)C1=C[C@@H](C(=O)OC)C2C3=C(C(=O)[C@@]2(C)NC(=O)c2ccccc2)[C@H](c2ccccc2)[C@@H]2C(=O)N(c4ccccc4)C(=O)[C@@H]2[C@@H]3C1 (stereo partly specified),-27.6%
Oc1ccc(N2CCN(Cc3cc4c(cc3Br)OCCO4)CC2)cc1,-15.6%
CCOC(=O)CNC(=O)CSc1nnnn1-c1ccc(C)c(C)c1,13.1%
CCOC(=O)Nc1c(Cl)n(C)c(=O)n(C)c1=O,-9.4%
Cc1cc(Br)ccc1NC(=O)CN(C)C(=O)C1=COCCO1,-0.2%
COc1ccc(NC(=O)N2CCC3(CC2)CCN(C(=O)c2ccco2)CC3)cc1,-3.5%
C=CC(C)(C)c1[nH]c2ccccc2c1C1=C(O)C(=O)C(c2c[nH]c3c(CC=C(C)C)cccc23)=C(O)C1=O,17.8µM*
COc1ccccc1CN1CCNC(=O)C1CC(=O)NCc1csc(C)n1 (stereo unspecified),-10.2%
CCOc1ccc(Br)cc1S(=O)(=O)NCCN(C)C,-4.7%
C#CCn1c(O)c(N=NC(=O)CNC(=O)/C=C/c2ccccc2)c2ccccc21,9.3%
CCc1ccc(NC(=O)CSc2nnc(-c3n[nH]c4ccccc34)n2-c2ccccc2)cc1,-1.1%
CN(C)C(=S)c1ccc2ccccc2n1,11.7%
CCOC(=O)CNC(=O)Nc1cc(C(C)(C)C)nn1-c1ccccc1,6.2%
CCOc1cc(NC(=S)NCCOC)c(OCC)cc1NC(=O)c1ccco1,?
C#CC(=O)N(c1cc(OC)ccc1OC)C(C(=O)NC1CCCC1)c1cccs1 (stereo unspecified),?
CN(Cc1ccccc1)C(=O)Cn1c(=O)c2cccn2c2ccc(F)cc21,6.1%
COc1ccc(CCNC(=O)Cn2nc(C)n3c(cc4cc(F)ccc43)c2=O)cc1OC,7.0%
CCc1ccccc1NC(=O)Cn1nc(C(F)(F)F)c2c1CCC2,-23.2%&-1.7%
Cn1nnnc1SCC(=O)Nc1ccc(Br)cc1Cl,1.1%
COC(=O)[C@]1(C)N[C@H](CN(C)C(=O)Nc2ccc(C)cc2)[C@@H]2C(=O)N(C)C(=O)[C@@H]21,-3.9%
O=C(CSc1ccc(-c2ccco2)nn1)Nc1ccc(F)cc1F,?
COc1ccc(CCNC(=O)CSc2ncn[nH]2)cc1,-3.5%
COc1cccc(CNC(=O)c2cc(-c3cccc(OC)c3)n[nH]2)c1,-1.3%
O=C(Nc1ccnn1C1CCN(Cc2ccccc2)CC1)c1ccccc1Cl,24.3%
O=c1c2ccccc2oc2cc(C#CC3(O)CCCCC3)ccc12,6.3%
O=c1c2cccnc2n(-c2ccccc2)n1Cc1ccc(Cl)cc1,-4.8%
COc1cccc(/C=N/NC(=O)C(C)Sc2ccccc2)c1 (stereo unspecified),28.7%
O=C(COC(=O)c1cc2c(s1)CCCC2)NCc1ccccc1Cl,-12.7%
Cc1cc(C)c(-c2nc3ccccc3s2)[nH]1,9.0%
Cc1ccc(Cl)cc1-n1c(SCC(=O)NCCC2=CCCCC2)nc2n[nH]c(C)c2c1=N,-11.3%
Cc1ccc2cc(CN(Cc3ccc4c(c3)OCO4)Cc3nnnn3Cc3ccco3)c(=O)[nH]c2c1,-21.2%
N#C/C(=C\c1c[nH]c2ccccc12)C(=O)c1ccc(O)c(O)c1,?
O=C(O)c1ccc(NC2=C(n3nnc4ccccc43)C(=O)c3ccccc3C2=O)cc1,13.2%
COc1ccc(N(CC(=O)N2CCN(c3ccccc3F)CC2)S(=O)(=O)c2ccc(C)cc2)cc1,-4.8%
COc1ccc(Cn2ccc3nc(C)c(C(=O)NCc4cccc(OC)c4)cc3c2=O)cc1,3.5%
CN(C)c1nc(SCCOC(=O)COc2ccc(Cl)cc2Cl)nc(N(C)C)n1,-9.1%
Cc1no[n+]([O-])c1COc1ccc(/C=C2\NC(=S)NC2=O)cc1,-2.9%
N#Cc1ccc(C(CC(=O)O)N2Cc3ccccc3C2=O)cc1 (stereo unspecified),3.3%
CC(=O)Nc1ccc(-n2c(CCC(=O)O)ccc2-c2ccc(Br)cc2)cc1,-25.7%
COc1cc(C(=O)NCCC(=O)NCc2c(F)cc(F)cc2F)cc(OC)c1OC,36.8%[activator]
COc1ccc(CCN=C(N)NS(=O)(=O)c2cccs2)cc1OC,-5.2%
O=C(Nc1cccnc1)c1ccc(Cl)c(S(=O)(=O)N2CCCCC2)c1,24.9%
CC1(C)SC(=S)N(/N=C/c2ccc(O)cc2)C1N(O)C(=O)Nc1ccc([N+](=O)[O-])cc1 (stereo unspecified),-9.8%
CCn1cc(C(=O)NCc2ccco2)c(=O)c2cc(S(=O)(=O)N3CCCC3)ccc21,-6.5%
CC1CCCC(C)N1C(=O)COC(=O)c1cc(S(=O)(=O)N2CCOCC2)ccc1Cl (stereo unspecified),-7.2%
COc1ccc2c3c(c(=O)oc2c1OCC(N)=O)CCCC3,1.8%
COc1ccc(NC(=O)CNC(=O)c2nn(-c3ccc(OC)c(Cl)c3)c(=O)c3ccccc23)c(OC)c1,-13.3%
CCCc1[nH]n(-c2ccc([N+](=O)[O-])cc2)c(=O)c1C=NCCCn1ccnc1,3.9%
Cc1cc(C)cc(NC(=O)COC(=O)c2cc(C)oc2C)c1,4.3%
CCN(Cc1ccccc1)CC(O)COc1ccccc1 (stereo unspecified),21.6%
CC1=CC(=C(C#N)c2nc3ccccc3s2)C=C(C)N1c1ccc(F)cc1,1.2%
Cc1ccc(NC(=O)Cn2nc(C(=O)O)c3ccccc3c2=O)cc1S(=O)(=O)N1CCCCCC1,-0.7%

# Next section:
SMILES,VDR inh
Cc1ccc(S(=O)(=O)N2CCCN(C(=O)CNC(=O)c3ccccc3)CC2)cc1,-5.2%
O=c1oc2cc(O)c(Cl)cc2c2ccccc12,-15.9%
CCn1cc(C(=O)NCc2ccc3c(c2)OCO3)c2cc(OC)c(OC)cc2c1=O,-7.0%
N/C(=N\NC(=O)c1ccc(Cl)cc1)c1cnccn1,-7.8%
Cn1cc(S(=O)(=O)N2CCC(Cc3ccccc3)CC2)c(=O)n(C)c1=O,3.6%
COC(=O)N/C(C)=C1/NC(=O)c2ccccc2C(c2ccccc2)N1 (stereo unspecified),6.0%
CCNc1cccc2c1C(=O)N(C)C2=O,-0.6%
Cn1nc(-c2ccccc2)c(C(O)c2ccc(Cl)cc2)c1Cl (stereo unspecified),-10.5%
COc1cccc(NC(=O)CN(C2=NC3CS(=O)(=O)CC3S2)c2cccc(C)c2)c1 (stereo unspecified),-22.1%
O=C(Cn1cc([N+](=O)[O-])cn1)Nc1nc2ccccc2s1,-2.3%
Cc1cccc(OCC(=O)OCc2cc(=O)n3nc(C4CC4)sc3n2)c1,6.6%
O=[N+]([O-])c1ccc(/C=C/C2=NN(c3ccccc3)C(c3ccco3)C2)o1 (stereo unspecified),2.7%
CCC(C)(C(=O)NC1CCCCC1)N(Cc1ccco1)C(=O)c1ccccn1 (stereo unspecified),-3.5%
Cc1ccc(-n2nc(C(=O)N3CCN(c4cccc(C(F)(F)F)c4)CC3)c3c4ccccc4n(C)c3c2=O)cc1,-11.7%
O=C(CCNC(=O)c1ccccc1Cl)Nc1nc2ccccc2[nH]1,-10.5%
O=C(Nc1ccc(Oc2ccccc2)cc1)N[C@@H](Cc1ccccc1)C(=O)O,13.7%
Cc1ccccc1C(=O)N1CCN(c2nc(N3CCOCC3)nc(N3CCOCC3)n2)CC1,6.5%
NC(=O)[C@@H]1CCCN1Cc1nc(Cc2cccc(C(F)(F)F)c2)no1,16.7%
Cc1ccc2cc(CCNC(=O)c3ccco3)c(=O)[nH]c2c1C,-8.1%
O=C(ONC(=O)C1C2C=CC(C2)C1C(=O)NOC(=O)c1ccccc1)c1ccccc1 (stereo unspecified),-8.5%
CCCNc1ccc(-c2nc(-c3ccncc3)no2)cc1[N+](=O)[O-],15.9%
CC(CCO)Nc1nc2c([nH]1)c(=O)n(C)c(=O)n2C (stereo unspecified),-12.4%
O=C1CN(C(=O)/C=C/c2ccc(Br)cc2)CCN1,6.0%
CCN(CC(=O)Nc1cc(Cl)ccc1C)C(=O)C1COc2ccccc2O1 (stereo unspecified),-12.0%
NCCCn1cnc2ccccc21,-7.7%
c1cncc(-c2nc(NCc3ccco3)c3ccccc3n2)c1,0.7%
N#Cc1nc(Cc2ccccc2)oc1N1CCN(c2cccc(Cl)c2)CC1,7.6%
CCN1C(=NCC(C)C)N[C@@H](c2cccc(C(F)(F)F)c2)C(C(=O)OC)=C1C,4.0%
CN(C(=S)Nc1ccc(SC(F)F)cc1)c1ccc(O)cc1,-24.9%
O=C(O)CCCN1C(=O)/C(=C/c2ccc(-c3nc4ccccc4s3)o2)SC1=S,-11.4%
COc1ccc(/C(C)=N/NC(=O)CNC(=O)COc2ccccc2)c(OC)c1,15.6%
CC(=O)N(c1ccccc1)c1c(F)c(F)c(F)c(F)c1F,6.6%
O=C1CCCc2cc(S(=O)(=O)N3CCCC(C(=O)NCc4ccc(Cl)cc4)C3)ccc2N1 (stereo unspecified),13.9%
Cc1ccc(C(=O)CCC(=O)OCC(=O)N(C)c2c(N)n(Cc3ccccc3)c(=O)[nH]c2=O)cc1,-1.0%
COc1cc2nc(NCCc3ccc(Cl)cc3)n3nc(-c4ccccc4)nc3c2cc1OC,-18.2%
O=C(COC(=O)c1ccc(F)cc1)Nc1ccccc1N1CCOCC1,-6.5%
COc1ccc(C(=O)N(CC2CCCO2)C(C(=O)NC2CCCC2)c2ccc(C)cc2)cc1OC (stereo unspecified),-1.8%
COc1cc(Cl)c(C)cc1NC(=O)CSC1=NCCS1,-5.3%
Cc1cccnc1NC(=O)CCc1nnc2ccc(NCc3ccco3)nn12,6.9%
COc1ccc(C(=O)Nc2cc(C)c(NC(=O)c3ccccn3)cn2)cc1,-9.8%

# Shown as a hit in VDR inh, among the entries above:
SMILES,VDR inh
O=C(OCC(=O)N1N=C(c2ccc(Cl)cc2)CC1c1ccco1)c1cncc(Br)c1 (stereo unspecified),70.8µM*
C=CC(C)(C)c1[nH]c2ccccc2c1C1=C(O)C(=O)C(c2c[nH]c3c(CC=C(C)C)cccc23)=C(O)C1=O,17.8µM*

# Looked up by structure from the entries so far:
SMILES,VDR inh
COc1cc(Cl)c(C)cc1NC(=O)CSC1=NCCS1,-5.3%
COc1ccc(C(=O)Nc2cc(C)c(NC(=O)c3ccccn3)cn2)cc1,-9.8%

# The listing continues.
SMILES,VDR inh
O=C(Nc1cc(F)ccc1F)c1cc2nc(-c3ccco3)cc(C(F)(F)Cl)n2n1,2.9%
CCc1ccc(NC(=O)CNC(=O)[C@@H]2Cc3ccccc3CN2)cc1,-10.9%
COc1cc(NC(=O)c2cccc(C)c2)c(Cl)cc1[N+](=O)[O-],-2.6%
COc1ccc(Cl)cc1-c1nc(SCC(=O)NCCN2C(=O)CSC2=O)n[nH]1,-25.2%
CCCCN(CC)CCCNC(=O)Cn1ncc2c3ccccc3n(Cc3ccccc3F)c2c1=O,21.8%
Cc1ccc(NC(=O)C2CCCN2C(=O)c2cccs2)cc1C (stereo unspecified),-8.3%
COC(=O)[C@]1(Cc2ccccc2)N[C@H](CN(C)S(=O)(=O)c2ccc(-c3ccccc3)cc2)[C@@H]2C(=O)N(C)C(=O)[C@@H]21,-0.8%
COc1ccc(CC(=O)OCC(=O)NC(=O)NC23CC4CC(CC(C4)C2)C3)cc1,-3.9%
CC(=O)Nc1ccc(N(C(=O)c2ccccn2)C(C(=O)NC2CCCCC2)c2ccc(F)cc2)cc1 (stereo unspecified),7.4%
CCOC(=O)CSC1=C(C#N)C(c2ccco2)C(C(=O)Nc2cccc(C(F)(F)F)c2)=C(C)N1 (stereo unspecified),2.8%
CCOC(=O)N[C@H](Cc1c[nH]c2ccccc12)C(=O)Nc1cccc(Cl)c1,-8.3%
O=C(O)c1ccccc1-c1ccccc1C(=O)Nc1ccc2c(c1)[nH]c(=O)c1ccccc12,-19.7%
Cc1ccc(S(=O)(=O)NCC(=O)OCC(=O)Nc2cccc(S(=O)(=O)NC3=NCCCCC3)c2)cc1C,4.6%
CCOc1ccc(C(=O)Nc2cc(-c3nc4ccccc4o3)ccc2C)cc1Cl,2.3%
Cc1c(/C=N/NC(=O)c2ccccc2O)c2ccccn2c1C(=O)c1ccc(F)cc1,13.7%

# Rewritten with values ahead of the structure: part of the list above
VDR inh	Compound
-8.3%	CCOC(=O)N[C@H](Cc1c[nH]c2ccccc12)C(=O)Nc1cccc(Cl)c1
13.7%	Cc1c(/C=N/NC(=O)c2ccccc2O)c2ccccn2c1C(=O)c1ccc(F)cc1
2.9%	O=C(Nc1cc(F)ccc1F)c1cc2nc(-c3ccco3)cc(C(F)(F)Cl)n2n1
-0.8%	COC(=O)[C@]1(Cc2ccccc2)N[C@H](CN(C)S(=O)(=O)c2ccc(-c3ccccc3)cc2)[C@@H]2C(=O)N(C)C(=O)[C@@H]21
4.6%	Cc1ccc(S(=O)(=O)NCC(=O)OCC(=O)Nc2cccc(S(=O)(=O)NC3=NCCCCC3)c2)cc1C
-3.9%	COc1ccc(CC(=O)OCC(=O)NC(=O)NC23CC4CC(CC(C4)C2)C3)cc1
